RecA splice inh = inhibitors of M. tuberculosis RecA intein splicing | P9WHJ3 | cell-free RecA intein splicing, fluorescence | inhibition, %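 (about 9 µM by stock and volumes)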 | 290,000 compounds, 0.75% hits; in the data active = inhibition above about 30%; inconclusive = no clear call, values can overlap the other calls;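 note: 0% = vehicle wells and 100% = reference inhibitor control wells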
Target sequence (P9WHJ3 whole entry, looked up, canonical isoform): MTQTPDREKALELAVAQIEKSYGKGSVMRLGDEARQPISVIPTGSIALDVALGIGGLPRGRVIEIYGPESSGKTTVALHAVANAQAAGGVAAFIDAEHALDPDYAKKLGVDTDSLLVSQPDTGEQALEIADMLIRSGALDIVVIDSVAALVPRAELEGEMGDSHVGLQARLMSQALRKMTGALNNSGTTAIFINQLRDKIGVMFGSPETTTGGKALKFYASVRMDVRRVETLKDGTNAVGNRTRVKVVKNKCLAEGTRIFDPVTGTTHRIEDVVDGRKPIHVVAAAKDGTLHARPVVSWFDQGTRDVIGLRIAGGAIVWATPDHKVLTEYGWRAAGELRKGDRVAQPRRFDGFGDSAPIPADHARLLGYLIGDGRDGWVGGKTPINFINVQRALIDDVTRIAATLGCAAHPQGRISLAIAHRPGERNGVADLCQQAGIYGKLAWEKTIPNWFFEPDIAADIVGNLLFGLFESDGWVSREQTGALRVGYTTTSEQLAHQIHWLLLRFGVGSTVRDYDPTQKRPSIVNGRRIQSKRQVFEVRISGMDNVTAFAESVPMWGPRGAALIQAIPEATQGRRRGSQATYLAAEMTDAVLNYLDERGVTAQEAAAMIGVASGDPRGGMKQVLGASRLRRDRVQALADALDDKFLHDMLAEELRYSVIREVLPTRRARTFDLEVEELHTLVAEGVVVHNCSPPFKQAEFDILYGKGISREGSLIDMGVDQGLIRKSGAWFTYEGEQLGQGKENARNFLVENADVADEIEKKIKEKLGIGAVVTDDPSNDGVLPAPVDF
YopH inh = inhibitors of Yersinia enterocolitica YopH tyrosine phosphatase. fluorescence Ex485/Em525. inhibition, %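 (about 10 µM by stock and volumes)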. 140,000 compounds, 0.16% hits. AID 898;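 active = inhibition of 50% or more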;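 note: controls were vehicle for no effect and minimum signal wells for full effect; inactives centre near -20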
Mtb betalactam = beta-lactam sensitization of Mtb H37Rv; M. tuberculosis H37Rv growth with meropenem, percent inhibition; hits of this screen are not shown here; inhibition, % at 25 µM; 330,000 compounds, 0.27% hits; AID 434955;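 active = about 74% or more and at least 40 points above the plate without the antibiotic, then above 30% in a dose series; inconclusive = first-round hits that could not be retested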;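 note: growth measured after seven days incubation then overnight dye step; 0% = bacteria only wells and 100% = bacteria with antibiotic; twin plates without the antibiotic show which effects depend on it; some results filed as inactive read as strong as hits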
Mtb H37Rv = M. tuberculosis H37Rv growth inhibitors, H37Rv strain (AID 1626). M. tuberculosis H37Rv growth inhibition; higher % means a stronger effect. inhibition, % at 10 µM, or IC50 in µM where a hit was titrated. 220,000 compounds, 0.95% hits;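 active = confirmed in a dose series; inconclusive = inhibition above 80% but not taken into the dose series; inactive = below 80% or under 30% at every dose of the series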;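 note: bacteria incubated seven days before Alamar blue readout; 0% = bacteria only wells and 100% = bacteria with antibiotic wells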
Arbovirus anti = blocks arbovirus infection. inhibition, % at 10 µM. AID 1251. arbovirus infection cell-based antiviral screen. 200,000 compounds, 0.37% hits;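 active = inhibition from about 30%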;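 note: bluetongue infection of BSR cells; cell survival read as ATP light after 72 h; 0% = infected wells without compound and 100% = uninfected wells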
Arbovirus anti repeat = recorded beside Arbovirus anti, whose call it bears; inhibition, %; measured here: 10K subset replicate screen; many hits read low in the repeat;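 first of two repeat runs on a subset; 0% = infected and 100% = uninfected wells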
Starred values were filed as active, the others as inactive. A portion of the library (hit frequency here may not be typical).

How did CC(NC(=O)CCNS(=O)(=O)c1ccc2c(c1)oc(=O)n2C)c1ccccc1 (stereo not given) do in these assays?
RecA splice inh: 1.4; Mtb betalactam: 2

How did CCOC(=O)c1ccc(S(=O)(=O)N(CCO)Cc2cc3cc(OC)c(OC)cc3[nH]c2=O)cc1 do in these assays?
RecA splice inh: -4.2; Mtb betalactam: -8

Results for Clc1ccc(-c2nc(N3CCCCC3)nc3ccccc23)cc1 ?
YopH inh: -8; Mtb betalactam: 1; Mtb H37Rv: 20%; Arbovirus anti: -11

How did COCCCNC(=O)c1ccccc1Sc1ccc(NC(C)=O)nc1 do in these assays?
RecA splice inh: -1.2; Mtb betalactam: 7; Mtb H37Rv: -5%; Arbovirus anti: 2

Results for Cc1cc(/C=C2/NC(=O)N(Cc3ccccc3F)C2=O)c(C)n1-c1ccccn1 ?
RecA splice inh: 1.2; YopH inh: -19; Mtb betalactam: -6; Mtb H37Rv: 39%; Arbovirus anti: 0

How did CCC(=O)NC(c1ccc(OC)cc1)c1cc(Cl)c2cccnc2c1O (stereo not given) do in these assays?
RecA splice inh: 4.0; Mtb betalactam: 3; Mtb H37Rv: -3%; Arbovirus anti: -28

Results for COc1ccc(N(Cc2cc(=O)[nH]c3ccccc23)C(=O)C(C)C)cc1 ?
RecA splice inh: 1.3; Mtb betalactam: 2

Results for Nc1nc(Cl)cc(N2CCCC2)n1 ?
RecA splice inh: 0.0; Mtb betalactam: -2; Mtb H37Rv: -6%; Arbovirus anti: -1

What do the screens show for `CN(CCCNC(=O)c1cc2c(Cl)nc3ccccc3c2s1)Cc1ccccc1`?
RecA splice inh: 4.6; Mtb betalactam: 99; Mtb H37Rv: inconclusive; Arbovirus anti: -25

What do the screens show for `CC(=O)Nc1ccc(NC(=O)C(C)OC(=O)CNC(=O)c2ccc(-c3ccccc3)cc2)cc1` (stereo not given)?
RecA splice inh: -2.6; Mtb betalactam: 2

How did Cc1cc(C(C)(C)C)cc(S(=O)(=O)NCCc2ccncc2)c1C do in these assays?
RecA splice inh: -2.2; Mtb betalactam: -3

How did CCCn1c(SCC(=O)N2CCCCC2)nnc1-c1ccco1 do in these assays?
RecA splice inh: -4.5; YopH inh: -14; Mtb betalactam: -8; Mtb H37Rv: 2%; Arbovirus anti: 4

A draw from above in order of SMILES length, high to low:
How did CCOC(=O)c1ccc(S(=O)(=O)N(CCO)Cc2cc3cc(OC)c(OC)cc3[nH]c2=O)cc1 do in these assays?
RecA splice inh: -4.2; Mtb betalactam: -8

Results for Cc1cc(/C=C2/NC(=O)N(Cc3ccccc3F)C2=O)c(C)n1-c1ccccn1 ?
RecA splice inh: 1.2; YopH inh: -19; Mtb betalactam: -6; Mtb H37Rv: 39%; Arbovirus anti: 0

How did CC(NC(=O)CCNS(=O)(=O)c1ccc2c(c1)oc(=O)n2C)c1ccccc1 (stereo not given) do in these assays?
RecA splice inh: 1.4; Mtb betalactam: 2

What do the screens show for `CN(CCCNC(=O)c1cc2c(Cl)nc3ccccc3c2s1)Cc1ccccc1`?
RecA splice inh: 4.6; Mtb betalactam: 99; Mtb H37Rv: inconclusive; Arbovirus anti: -25

Other records follow.
Results for COc1ccc(Br)cc1/C=N/NC(=O)c1ccc2nc[nH]c2c1 ?
RecA splice inh: 0.2; Mtb betalactam: 3

What do the screens show for `Cc1nn(CC(=O)NCCc2ccco2)c(=O)c2nn(-c3ccccc3)c(C)c12`?
RecA splice inh: 1.0; Mtb betalactam: -4

Results for CC(=O)CCC1CC(c2ccc(Cl)cc2)=NO1 (stereo not given) ?
RecA splice inh: -1.0; Mtb betalactam: 24

Results for CC(=O)N1CCN=C1SCc1cccc(Cl)c1 ?
RecA splice inh: 2.5; Mtb betalactam: 0

How did CN1C(=O)CSC1=NCC12CC3CC(CC(C3)C1)C2 do in these assays?
RecA splice inh: -2.9; YopH inh: 14; Mtb betalactam: 8; Mtb H37Rv: 13%; Arbovirus anti: 0

What do the screens show for `Cc1ccccc1N(CC(=O)N1CCCCCC1)S(C)(=O)=O`?
RecA splice inh: -0.2; Mtb betalactam: 1

Results for N#Cc1nc(COc2ccc(Cl)cc2)oc1N1CCCC1 ?
RecA splice inh: 0.3; YopH inh: -33; Mtb betalactam: -1; Mtb H37Rv: 4%; Arbovirus anti: -5

What do the screens show for `C/C(=N\O)C(=O)NCc1ccncc1`?
RecA splice inh: 0.2; YopH inh: -50; Mtb betalactam: -9; Mtb H37Rv: 2%; Arbovirus anti: 3

What do the screens show for `Cc1ccccc1COc1ccc(/C=C(\C#N)C(N)=O)cc1`?
RecA splice inh: 12; Mtb betalactam: 11; Mtb H37Rv: 7%; Arbovirus anti: 2

How did Cc1cccc(NC(=O)/C(=C\c2ccco2)NC(=O)c2ccccc2)c1 do in these assays?
RecA splice inh: 1.7; YopH inh: 2; Mtb betalactam: 6; Mtb H37Rv: -7%; Arbovirus anti: 2

What do the screens show for `COc1ccc(NC(=O)COc2cc(C)cc(C)c2)cc1S(=O)(=O)N1CCCCC1`?
RecA splice inh: 0.5; Mtb betalactam: -14

How did COc1ccccc1CN1C(=S)SC(C)(C)C1NO (stereo not given) do in these assays?
RecA splice inh: 2.8; YopH inh: -38; Mtb betalactam: 1; Mtb H37Rv: 1%; Arbovirus anti: 2

What do the screens show for `CC(=O)CC(CC(=O)NC1CCCCC1)c1ccccc1` (stereo not given)?
RecA splice inh: -0.5; Mtb betalactam: 5

Results for CC(=O)c1c(C)[n+]([O-])c2ccc3c(non3O)c12 ?
RecA splice inh: 1.0; Mtb betalactam: -6; Mtb H37Rv: -1%; Arbovirus anti: 7

What do the screens show for `COc1ccc(CN(C)C(=O)Cn2ccsc2=N)cc1OC`?
RecA splice inh: -1.1; Mtb betalactam: -5

What do the screens show for `N#Cc1ccc(/C=C\c2nccc3c2[nH]c2ccccc23)cc1`?
RecA splice inh: -24; Mtb betalactam: 22; Mtb H37Rv: inconclusive; Arbovirus anti: 3

What do the screens show for `C=CCCCCc1nc2ccccc2c(=O)n1N`?
RecA splice inh: 0.2; YopH inh: -21; Mtb betalactam: 6; Mtb H37Rv: 9%; Arbovirus anti: 1

Results for COc1cc(NC(=O)c2cccs2)c(C(=O)OCC(=O)c2cc(C)n(-c3ccc(F)cc3)c2C)cc1OC ?
RecA splice inh: 0.1; YopH inh: -41; Mtb betalactam: 1; Mtb H37Rv: 7%; Arbovirus anti: 0

How did C[C@@H]1Cc2c(O)c(O)cc(O)c2C(=O)O1 do in these assays?
RecA splice inh: -3.8; Mtb betalactam: -4; Mtb H37Rv: -8%

What do the screens show for `COc1ccccc1C(=O)NCC(=O)N/N=C/c1ccc([N+](=O)[O-])cc1`?
RecA splice inh: -3.1; Mtb betalactam: -13; Mtb H37Rv: 4%; Arbovirus anti: -4

What do the screens show for `CCOC(=O)C1=C(c2ccccc2)NC(=O)NC1c1cc(Br)c(O)c(OC)c1` (stereo not given)?
RecA splice inh: 3.0; Mtb betalactam: 0; Mtb H37Rv: 3%; Arbovirus anti: 3

Results for S=C(Nc1ccccc1Cl)N(CCCN1CCOCC1)Cc1ccccn1 ?
RecA splice inh: -6.1; Mtb betalactam: -3; Mtb H37Rv: 4%; Arbovirus anti: 8

How did O=C(Cn1cc(C(=S)N2CCOCC2)c2ccccc21)N1CCOCC1 do in these assays?
YopH inh: -8; Mtb betalactam: 2; Mtb H37Rv: 2%; Arbovirus anti: 5

What do the screens show for `C/C(=C/c1ccccc1)C(=O)N1CC(C)OC(C)C1` (stereo not given)?
RecA splice inh: 0.2; Mtb betalactam: 4; Mtb H37Rv: -4%; Arbovirus anti: 2

Results for O=C(NN1C(=O)C2C3C=CC(C4CC34)C2C1=O)c1ccc(Cl)cc1 (stereo not given) ?
RecA splice inh: 1.4; YopH inh: -11; Mtb betalactam: -8; Mtb H37Rv: 7%; Arbovirus anti: 12

Results for COc1cccc(NC(=O)C2(S(=O)(=O)c3ccc(Cl)cc3)CC2)c1 ?
RecA splice inh: 0.7; Mtb betalactam: -5; Mtb H37Rv: 6%

How did N#CC1(NC(=O)COc2ccc3ccc(=O)oc3c2)CCCCC1 do in these assays?
RecA splice inh: -0.5; Mtb betalactam: 3

What do the screens show for `Cc1cc(/C=N/NC(=O)c2cccs2)c(C)n1-c1cnccn1`?
RecA splice inh: 0.3; Mtb betalactam: 5; Mtb H37Rv: 5%; Arbovirus anti: -2

Results for O=C(Nc1ccc2c(c1)OCCO2)C1CCN(c2nnnn2-c2ccccc2)CC1 ?
YopH inh: -28; Mtb betalactam: -17; Mtb H37Rv: 3%; Arbovirus anti: 10

Results for CC1CCCCN1C(=O)c1cc(-c2ccc(Cl)c(Cl)c2)on1 (stereo not given) ?
RecA splice inh: 2.1; YopH inh: 6; Mtb betalactam: 79; Arbovirus anti: -20

What do the screens show for `Cc1c(-c2ccnc3cc(C(=O)O)nn23)cnn1C`?
RecA splice inh: -13; Mtb betalactam: -7; Mtb H37Rv: 4%; Arbovirus anti: 2

How did CCn1c(=O)c(CCC(=O)N2CCOCC2)c(C)c2c(C)nn(-c3ccccc3)c21 do in these assays?
RecA splice inh: -1.0; Mtb betalactam: 10

Results for Nc1c2c(nc3c1CCCC3)CCCC2 (tested in a mixture with another compound) ?
RecA splice inh: 4.6; Mtb betalactam: -3

How did CCOc1nonc1C(=N)/C(C(C)=O)=C(\C)O do in these assays?
RecA splice inh: -0.4; YopH inh: 2; Mtb betalactam: -2; Mtb H37Rv: -15%; Arbovirus anti: 1; Arbovirus anti repeat: 3

Results for COc1ccc(-n2cc(-c3ccccc3)c3c(N4CCOCC4)ncnc32)cc1 ?
RecA splice inh: 3.3; Mtb betalactam: 32; Mtb H37Rv: 7%; Arbovirus anti: -16

How did CN(c1ccccc1)S(=O)(=O)c1ccc(C(=O)Nc2nnc(-c3ccc(F)cc3)o2)cc1 do in these assays?
RecA splice inh: -0.9; YopH inh: -30; Mtb betalactam: 0; Mtb H37Rv: inconclusive; Arbovirus anti: -12

What do the screens show for `Cc1ccc(S(=O)(=O)NCCC(=O)Nc2cccc(Cl)c2)cc1`?
RecA splice inh: 2.3; YopH inh: -17; Mtb betalactam: 9; Mtb H37Rv: -5%; Arbovirus anti: -1

Results for Cc1ccc(C=Nc2ccccc2C(N)=O)cc1 ?
RecA splice inh: -2.6; YopH inh: -2; Mtb betalactam: -3; Mtb H37Rv: -9%; Arbovirus anti: -14

What do the screens show for `CCOc1ccc(CN2CCSCC2)cc1`?
RecA splice inh: 0.1; Mtb betalactam: -3

What do the screens show for `O=C(Cc1c(O)c2ccccc2[nH]c1=O)NC1CCCCCC1`?
RecA splice inh: -0.2; YopH inh: -3; Mtb betalactam: 14; Mtb H37Rv: -1%; Arbovirus anti: 0

What do the screens show for `CN1CCN(C(=O)CSc2nc(-c3ccncc3)ccc2C#N)CC1`?
RecA splice inh: 2.0; YopH inh: -30; Mtb betalactam: -7; Mtb H37Rv: -4%; Arbovirus anti: 1

Results for N#Cc1cnc2nc(SCc3ccccc3)nn2c1 ?
RecA splice inh: 0.4; Mtb betalactam: -3

What do the screens show for `Cc1ccc2nc(NC(=O)C3CCN(S(=O)(=O)c4cccc5nsnc45)CC3)sc2c1`?
RecA splice inh: 0.0; YopH inh: -20; Mtb betalactam: 2; Mtb H37Rv: 7%; Arbovirus anti: 11

How did COCCn1c(C(C)C)nc2oc3ccccc3c(=O)c2c1=O do in these assays?
RecA splice inh: 0.7; YopH inh: -48; Mtb betalactam: -7; Mtb H37Rv: -5%; Arbovirus anti: 0

How did CCOC(=O)c1sc2nc(CSc3ccccc3)nc(NCCN(C)C)c2c1C do in these assays?
RecA splice inh: -2.4; Mtb betalactam: 100; Mtb H37Rv: -5%; Arbovirus anti: -28

What do the screens show for `N#Cc1nc(Cc2ccccc2)oc1NCCc1ccccc1`?
RecA splice inh: 7.9; YopH inh: 2; Mtb betalactam: 1; Mtb H37Rv: 14%; Arbovirus anti: -8

What do the screens show for `Cc1cc(C)n2nc(C(=O)OCC(=O)N(C)Cc3ccccc3)nc2n1`?
RecA splice inh: -0.2; Mtb betalactam: -8

What do the screens show for `COc1ccc(Br)cc1CN1C(=O)NC2(CCCCCC2)C1=O`?
RecA splice inh: -0.5; Mtb betalactam: 0

What do the screens show for `CCOc1ccc(NC(=O)[C@@H](NC(=O)OCc2ccccc2)[C@@H](C)CC)cc1`?
RecA splice inh: -0.3; YopH inh: -21; Mtb betalactam: -8; Mtb H37Rv: -4%; Arbovirus anti: -4

How did COc1ccc(NC(C)=O)cc1NC(=O)CCn1c(=O)sc2ccccc21 do in these assays?
RecA splice inh: -1.1; YopH inh: -8; Mtb betalactam: 13; Mtb H37Rv: -5%; Arbovirus anti: 0

Results for C=CCc1cc(Cl)ccc1OCCOCCNCCOC ?
RecA splice inh: 0.1; YopH inh: -12; Mtb betalactam: inconclusive; Mtb H37Rv: 5%; Arbovirus anti: -25

Screening results (PubChem BioAssay)
